Screening data from PubChem.
Menin MLL FP FL – displaces fluorescein MLL peptide from human menin | 290,000 tested, under 10 active | Fluorescence polarization, fluorescein-MLL peptide displacement from menin | FP activity change, % at 61.4 µM | AID 1766; inconclusive = falling polarisation curve, or a change in total fluorescence; inactive = total fluorescence flat and polarisation flat or rising; no compound was filed as active; the % refers to the polarisation; negative = inhibition;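 note: % of control where 0% means no effect; inhibitors lower the polarisation; unlabelled MLL peptide was the positive control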
Sfp inh – Sfp phosphopantetheinyl transferase inhibition | AID 1490 | Potency, µM, for the others: max response, negative = inhibition, usual class: inhibitors | 3.5% of 310,000 active | Q9F4F7 | Biochemical Sfp PPTase activity, qHTS; active = well fitted inhibition curve with a large enough effect; inconclusive = small, poorly fitted or top-dose-only effect, or another doubt; inactive = no such curve, though single readings can be large or run the other way;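 note: the enzyme is Sfp with the accession as filed and its product quenches rhodamine fluorescence; potency is the fitted concentration of half-maximal effect; 0% = enzyme reaction without inhibitor and -100% = no enzyme wells; top concentration of the series not given in the record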
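Sfp 15 nM + cpd, 15 min RT; start w/ rhodamine-CoA 5 uM, BHQ-2-YbbR 12.5 uM (final); 50 mM Hepes pH 7.6, 10 mM MgCl2, 0.01% NP-40, 0.01% BSA; read 525/598 nm at 0 and 30 min.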
TRPV1 PAM – potentiators of human vanilloid receptor 1 (TRPV1); Q8NER1; TRPV1-expressing cells, Fluo-8 calcium influx, capsaicin EC20 potentiation; host cell line not named in the record; control for the full effect not named in the record; potentiation, % at 8.33 µM; 0.02% of 320,000 active; AID 540277; active means potentiation above 80%; inconclusive means 30% to 80%; inactive means below 30%; note: 0% is about no effect
Target sequence (Q8NER1 whole entry, looked up): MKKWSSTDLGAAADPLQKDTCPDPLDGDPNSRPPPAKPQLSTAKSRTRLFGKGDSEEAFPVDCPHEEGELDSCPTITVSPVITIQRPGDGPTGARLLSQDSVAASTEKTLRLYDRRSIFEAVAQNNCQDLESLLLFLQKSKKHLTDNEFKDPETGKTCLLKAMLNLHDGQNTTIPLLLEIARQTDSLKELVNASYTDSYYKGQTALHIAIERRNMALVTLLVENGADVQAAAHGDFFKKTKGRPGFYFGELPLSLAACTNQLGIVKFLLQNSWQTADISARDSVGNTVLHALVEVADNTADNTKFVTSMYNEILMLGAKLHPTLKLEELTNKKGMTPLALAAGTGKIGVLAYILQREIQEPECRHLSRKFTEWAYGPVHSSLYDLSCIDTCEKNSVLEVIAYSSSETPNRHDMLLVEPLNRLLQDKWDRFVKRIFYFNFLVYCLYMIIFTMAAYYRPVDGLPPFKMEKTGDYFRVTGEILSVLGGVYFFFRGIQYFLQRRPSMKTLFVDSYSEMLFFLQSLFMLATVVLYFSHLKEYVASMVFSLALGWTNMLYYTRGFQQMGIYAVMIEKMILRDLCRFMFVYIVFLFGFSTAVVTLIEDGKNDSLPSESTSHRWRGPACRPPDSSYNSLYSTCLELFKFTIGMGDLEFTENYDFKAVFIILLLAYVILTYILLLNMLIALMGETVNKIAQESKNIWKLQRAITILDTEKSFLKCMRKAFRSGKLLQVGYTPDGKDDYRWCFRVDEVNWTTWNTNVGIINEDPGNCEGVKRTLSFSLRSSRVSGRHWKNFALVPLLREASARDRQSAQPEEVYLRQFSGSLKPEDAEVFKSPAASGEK
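TRPV1-expressing cells were cultured overnight at 35.5C and loaded with Fluo-8 calcium dye for 40 to 90 min at room temperature. After a 10 s baseline, compound was added and calcium influx was read kinetically for 3 min (ex 480/em 520 nm).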
The depositor's hits bear a star; u = inconclusive; x = no result given; & = joins results of further samples; [ ] = remark or other dose.

Under each structure: TRPV1 PAM | Sfp inh | Menin MLL FP FL
> Cc1ccc(S(=O)(=O)N2CCC(=O)N([C@H](COCc3cccc(C(F)(F)F)c3)Cc3ccccc3)CC2)cc1
  x | 4% | -0.2
> O=C(c1cc(C(F)(F)F)cc(C(F)(F)F)c1)N1CCC2(CCCN(c3ccccn3)C2)CC1
  x | 11% | -1.6
> CC(Cc1ccccc1)C(=O)NCC1CC1 (centres undefined)
  x | 15% | -5.7
> Cc1noc(C)c1-c1ccc2ncnc(Nc3ccc(F)cc3)c2c1
  x | 6% | 1.2
> COc1cccc(Cn2c(=O)c(-c3cccs3)nc3cnc(N4CCNCC4)nc32)c1
  x | 18µM* | u
> O=C(c1ccco1)N1CCC2(CCN(Cc3cc(C(F)(F)F)cc(C(F)(F)F)c3)CC2)CC1
  x | 0% | 12
> COC(=O)c1cccc(C23CC4(C2)[C@H](CN(CC2CCCCC2)[C@@H]4c2ccccc2)C3c2ccc(Cl)nc2)c1 (some centres undefined)
  x | 11% | 9.6
> CCCCCCCCCCCCCCCC(=O)OCC(COP(=O)(O)OCC[N+](C)(C)C)OC(=O)CCCCCCCCCCCCCCC (centres undefined)
  x | 1% | -1.3
> COC(=O)c1ccc(C(NC(=O)OCc2ccccc2)/C(=C/[C@@H](C)C(=O)Nc2ccc(OC)cc2)c2cccnc2)cc1 (some centres undefined)
  x | 19% | -0.8
> O=C1C[C@H](c2ccccc2Cl)N1S(=O)(=O)c1ccccc1[N+](=O)[O-]
  x | 16% | -3.7
> O=c1cc(-c2cccc(F)c2)[nH]c2ccc(Cl)cc12
  x | u | 2.7[94.6 µM]
> CC1(C)CCC2(C(=O)O)CC[C@]3(C)C(=CCC4[C@]5(C)CCC(O)C(C)(C)C5C(O)C[C@]43C)C2C1 (some centres undefined)
  x | 3% | 2.3
> CCNc1ncc2nc(-c3ccc(OC)cc3)c(=O)n(-c3ccc(OC)cc3)c2n1
  x | 12% | u
> COC(=O)[C@H]1C[C@H]2CC[C@H](O)C[C@H]2N1Cc1c(F)cccc1Cl
  x | 14% | -1.0
> O=c1c(-c2ccc(F)c(F)c2)nc2cncnc2n1Cc1ccccc1Cl
  x | u | 0.4
> COC(=O)CCCC1=CC2=CC(=O)C(C)(OC(=O)c3cccs3)C(=O)C2=CN1C(CO)CO (centres undefined)
  x | 16% | -4.3[11.7 µM]
> COC(=O)NC(c1ccc(Cl)cc1)C(C(C)=O)C(=O)OC (centres undefined)
  x | 11% | 2.9[11.7 µM]
> COC(=O)N[C@@H](/C=C/c1ccccc1)/C(C(=O)OC)=C(\C)NCc1ccccc1
  x | -9% | 9.8
> O=c1c(-c2ccc(F)cc2)nc2cnc(N3CCOCC3)nc2n1Cc1ccc(F)cc1
  x | -7% | -16
> CCN(CC)CCC(c1cc(OC)c(OC)c(OC)c1)c1c(OC)cc(OC)c2c1OC(=O)CC2c1ccc(N(C)C)cc1 (centres undefined)
  x | 4% | 1.2
> CC(C)CO/N=C1/[C@H]2O[C@@H]2[C@@H](O)[C@H]2[C@H]1CCn1c(=O)n(Cc3cc4c(cc3Cl)OCO4)c(=O)n12
  x | 8% | -4.9[11.7 µM]
> Cn1cc(-c2nc3cnc(Oc4ccccc4)nc3n(Cc3cccs3)c2=O)c2ccccc21
  x | 26% | u
> COC(=O)C/C=C\[C@@H](C)[C@@H](/C=N\O[C@@H](C)c1cn([C@H](CO)Cc2ccccc2)nn1)NS(=O)(=O)c1ccc(C)cc1
  x | 2%&17% | -1.9&1.6[11.7 µM]
> CC(=O)OCC(NC(=O)C(Cc1ccccc1)NC(=O)OC(C)(C)C)C1OC(n2cc(F)c(=O)[nH]c2=O)C(OC(C)=O)C1OC(C)=O (centres undefined)
  x | 13% | 2.5
> CCCCCCCN[C@H]1CCC[C@@H]1CCCCCCC(=O)O
  x | 1% | 0.0
> O=C(O)c1cc(=O)c2ccc(Cl)cc2[nH]1
  x | -29%&-4%&-11% | u
> CC(C)n1cnc2c(NCc3ccccc3)nc(NCCO)nc21
  x | 20%&11% | 5.2
> COc1cc(-c2oc3cc(O)ccc3c(=O)c2O)ccc1O
  x | u | u
> COc1cc2ccc(=O)oc2c(OC)c1OC
  x | 1% | -0.1
> O=C(O)c1c(Cl)c(Cl)c(Cl)c(Cl)c1-c1c2cc(I)c(=O)c(I)c-2oc2c(I)c(O)c(I)cc12
  x | 14µM* | u

New compounds follow.
Under each structure: TRPV1 PAM | Sfp inh | Menin MLL FP FL
> Clc1ccccc1-c1ccc2ncnc(NCc3cccnc3)c2c1
  x | -10% | -0.6
> O=C(Nc1ccccc1)N1CCCC2(CCN(S(=O)(=O)c3ccccc3)CC2)C1
  x | 4% | 2.2
> CCCCC1CN2C(CCC(C)C2c2ccc(Br)cc2)C(=O)O1 (centres undefined)
  x | 17%&7%&3% | -4.1&2.6&8.0[11.7 µM]
> O=C(c1ccco1)N1CCC2(CCN(Cc3ccccc3)CC2)CC1
  x | 12% | -1.8
> COC(=O)C1=C(C(=O)OC)[C@@H]2Nc3ccccc3[C@@]23C[C@@H](C(=O)OC)N(S(=O)(=O)c2ccc(Br)cc2)C3=N1
  x | 10% | -1.5[11.7 µM]
> O=c1cc(-c2ccccc2O)oc2cc(O)cc(O)c12
  x | -26% | 21
> CCC(=O)N1C2=C(c3ccccc3[C@@H]1CC(=O)Nc1ccc3ccccc3c1)[C@@H]1C(=O)N(c3ccccc3)C(=O)[C@@H]1[C@H](C)C2
  x | -5% | 0.0[11.7 µM]
> CN(C)c1ccc(C(=C2C=CC(=[N+](C)C)C=C2)c2ccccc2)cc1
  x | 50µM* | -1.4&3.3
> CO[C@H]1COC(=O)[C@H](C)NC(=O)[C@@H](C)COC(=O)C/C=C\[C@@H]1C
  x | 12% | 0.9[11.7 µM]
> CCOc1ccc(C(=O)c2ccc(OC)c(O)c2O)cc1
  x | -52% | 0.1
> COc1ccccc1-c1nccc(Nc2ccc(F)cc2)n1
  x | 1% | 2.3
> O=C(Nc1cccc(F)c1)N1CC2(CCN(C(=O)c3ccncc3)CC2)C1
  x | 15% | -0.6
> CCCC[C@H]1C(=O)N(c2ccccc2)N(c2ccc(O)cc2)C1=O
  x | 0% | 0.9[24.8 µM]
> CN(C)C(=O)c1ccc(-c2cc(-n3ccnc3)ncn2)cc1
  x | -26% | 2.1
> COCC(=O)N1CCC2(CCCN(c3ccncc3)C2)CC1
  x | 5% | 0.3
> Cc1nc(Nc2ccccc2)c2nc(-c3ccccc3)n(CCN3CCOCC3)c2n1
  x | 2% | -0.1
> COc1ccc(NC(=O)N2CC[C@@]3(CCCN(C(=O)c4cccn4C)C3)C2)cc1
  x | 18% | -0.9
> O=c1c(-c2ccc(F)cc2)nc2cnc(Nc3ccccc3)nc2n1Cc1cccs1
  x | -5% | u
> COC(=O)C1=C(C)N(Cc2ccccc2)[C@]23O[C@](C(=O)OC)(C(=O)N2C1c1ccccc1)C(c1ccccc1)C3C(=O)c1ccccc1 (some centres undefined)
  x | 20%&8% | 5.1&2.5[11.7 µM]
> CCC[C@@H]1C[C@@]1(CCC)C(NS(=O)(=O)c1cccc2cccnc12)c1ccc(Cl)cc1 (some centres undefined)
  x | 13% | -5.7
> CCCN1CCC(=O)N(C(CSc2ccc(C)cc2)Cc2ccccc2)CC1 (centres undefined)
  x | 0% | 4.7
> O=C(c1cnccn1)N1CCC[C@@]2(CCN(c3ccccn3)C2)C1
  x | 26% | -0.6
> CC(=O)O[C@H]1C[C@@]2(C)[C@H](C[C@@H](O)[C@H]3[C@@]4(C)CC[C@@H](O)[C@@H](C)[C@H]4CC[C@@]32C)C1=C(CCC=C(C)C)C(=O)O
  x | 36%[activator] | 1.2[24.8 µM]
> CC1(C)C[C@@H]2C(=O)CCC3O[C@@]3(C)CCC21 (some centres undefined)
  x | 15% | -7.4
> O=C1[C@H]2[C@H]3[C@H](O)[C@H](O)C/C(=N/OCc4ccccc4)[C@@H]3CC[C@@H]2C(=O)N1Cc1ccccc1
  x | 0% | -0.9[11.7 µM]
> Cc1ccnc(N)c1
  x | 14% | u
> CCC[C@@H]1C[C@@]1(CCC)C(NC(=O)c1cccs1)c1ccc(Cl)cc1 (some centres undefined)
  x | 24% | -2.0
> CCNC(=O)[C@@H]1CCCN1C(=O)[C@H](CCCN=C(N)N)NC(=O)[C@H](CC(C)C)NC(=O)[C@@H](Cc1c[nH]c2ccccc12)NC(=O)[C@H](Cc1ccc(O)cc1)NC(=O)[C@H](CO)NC(=O)[C@H](Cc1c[nH]c2ccccc12)NC(=O)[C@H](Cc1cnc[nH]1)NC(=O)[C@@H]1CCC(=O)N1
  x | u | -0.7
> FC(F)(F)c1ccccc1-c1cncnc1NCc1ccccc1
  x | -2% | -4.3
> C[C@]12C=CC(=O)C=C1CC[C@@H]1[C@H]3C[C@@H](O)[C@](O)(C(=O)CO)[C@@]3(C)C[C@H](O)[C@]12F
  x | 5% | 2.3[24.8 µM]

Going on with the list:
Under each structure: TRPV1 PAM | Sfp inh | Menin MLL FP FL
> COC(=O)N1CCC2(CCN(Cc3ccc(C#N)cc3)CC2)CC1
  x | 8% | 0.0
> COc1ncc2nc(-c3ccc(F)cc3)c(=O)n(Cc3ccc(F)cc3)c2n1
  x | -15% | 5.7
> c1ccc(Nc2ncnc3ccc(-c4cccnc4)cc23)cc1
  x | 10% | -4.9
> CCCn1c(C)nc2c(NC3CCCCC3)nc(C)nc21
  x | 13% | 3.2
> O=c1c(-c2ccccc2)nc2cnc(Nc3ccccc3)nc2n1C[C@H]1CCCO1
  x | 14% | u
> C/C=C/c1ccc(OC(C)[C@@H](O)c2ccc(O)c(OC)c2)c(OC)c1 (some centres undefined)
  x | -10% | 6.0
> CC(=O)c1ccc(C2C=CC(Oc3ccc(F)cc3C)C(CO)O2)cc1 (centres undefined)
  x | -5% | 0.4[11.7 µM]
> O=C(Nc1cccc(F)c1)N1CCCC2(CCN(S(=O)(=O)c3ccccc3)CC2)C1
  x | 14% | -4.0
> CCNc1ncc2nc(-c3cccs3)c(=O)n(C)c2n1
  x | -3% | u
> COC(=O)c1ccc(C(/C=C/[C@@H](C)C(=O)N(C)Cc2ccccc2)NC(=O)OCc2ccccc2)cc1 (some centres undefined)
  x | 10% | 4.3
> CCOC(=O)N/N=C1/C[C@@H](O)[C@@H](O)[C@@H]2[C@@H]3C(=O)N(CC)C(=O)[C@H]3CC[C@@H]12
  x | -8% | -1.7[11.7 µM]
> C[C@H]1C2=C3C(CC[C@H]4C(OCc5ccc(F)cc5C(F)(F)F)OC[C@](C)([C@@H]34)N(C(=O)OC(C)(C)C)C2)C(CO)C1CO (some centres undefined)
  x | 7% | -8.0
> COc1ccc(Oc2ncc3nc(-c4ccccc4)c(=O)n(C[C@H]4CCCO4)c3n2)cc1
  x | 11% | -2.7
> NS(=O)(=O)c1cc2c(cc1Cl)N[C@H](Cc1ccccc1)NS2(=O)=O
  x | 4% | 0.4
> Cc1ccc(C2CC(=O)Oc3cc(C)c(Cl)cc32)cc1 (centres undefined)
  x | u | -8.1[94.6 µM]
> CN(C)C(=O)c1ccc(-c2cncnc2Nc2ccc(F)cc2)cc1
  x | -14% | 8.6
> Cc1ccc2oc(=O)c3c4cc(O)c(O)cc4oc3c2c1
  x | 9% | 18
> N#Cc1cccc(NC(=O)N2CCC3(CC2)CCN(C(=O)c2ccco2)CC3)c1
  x | 0% | -0.5
> CC(C)[C@@H](N)C(=O)O
  x | -20% | -3.3
> O=C1CC(c2ccco2)CC2=C1C(c1cccnc1)n1nc(C(F)(F)F)nc1N2 (centres undefined)
  -10 | x | x
> C#CCOCCOCCOCCNc1nc(N2CCN(C(=O)CCCCCCCCCCNC(=O)[C@H]([C@@H](C)CC)n3cc(CCCCCN)nn3)CC2)nc(N2CCN(C(=O)CCCCCCCCCCNC(=O)[C@@H]([C@H](C)CC)n3cc(CCCCCN)nn3)CC2)n1
  u | x | x
> N#Cc1nc(NCC(F)F)nc(Nc2cc(F)cc(F)c2)n1
  4 | x | x
> CC(=O)N1CCN(c2ccc(NCc3ccco3)cc2)CC1
  7 | x | x
> CCn1cnc2c(Nc3cccc(Cl)c3)nc(C#N)nc21
  10 | x | x
> O=C([O-])c1cc(-c2ccccc2)cc(-c2ccccc2)[n+]1Cc1ccccc1
  u | x | x
> NC(=O)c1ccnc2c(O)cccc12
  1 | x | x
> CC(C)(C)n1ncc2c(=O)n(Cc3ccccc3Br)cnc21
  -12 | x | x
> Cc1ccc2nc3n(c(=O)c2c1)-c1ccccc1C(=O)NC3Cc1ccccc1 (centres undefined)
  -3 | x | x
> O=S(=O)(Nc1cccc2cccnc12)C1CC1
  6 | x | x

Sfp inh: what is marked active above
molecule	Sfp inh	Menin MLL FP FL
COc1cccc(Cn2c(=O)c(-c3cccs3)nc3cnc(N4CCNCC4)nc32)c1	18µM*	u
O=C(O)c1c(Cl)c(Cl)c(Cl)c(Cl)c1-c1c2cc(I)c(=O)c(I)c-2oc2c(I)c(O)c(I)cc12	14µM*	u
CN(C)c1ccc(C(=C2C=CC(=[N+](C)C)C=C2)c2ccccc2)cc1	50µM*	-1.4&3.3

The list is partial. The share of hits here may be higher or lower than overall.
